Compound activity from PubChem BioAssay.
NPYLR7 agonist: activates Aedes aegypti NPYLR7 receptor; HEK293T NPYLR7/Galpha15, GCaMP6s calcium fluorescence; activation, % at 10 µM; 0.15% of 270,000 active; AID 1259423; in the data active = activation above about 40%;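 also: 0% = vehicle and 100% = reference agonist at the receptor; some compounds past the cut are filed as inactive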
NPYLR7 agonist max-min: recorded beside NPYLR7 agonist, whose call it bears; activation, %; measured here: Max-Min RFU normalised activation; some inactives read as strong as hits;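 span of the calcium signal over five minutes; 0% = vehicle and 100% = native peptide agonist; compound fluorescence can raise it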
* = called active by the depositor; & = joins results of further samples. Some of the compounds tested. The share of hits here may be higher or lower than overall.

SMILES | NPYLR7 agonist | NPYLR7 agonist max-min
O=C(Nc1ccc(F)cc1)C(C1CCCC1)N1CCN(C(=O)c2ccco2)CC1 (stereo unspecified) | -7 | -7
NC(=O)CC1(C(F)(F)F)OCCO1 | 4 | 1
CCc1nc2c(OCc3ccc(C(F)(F)F)cc3)cccn2c1N(C)C(=O)c1ccc(OC)cc1 | 11 | 0
CCN(Cc1nc(COC)no1)C(=O)c1csnn1 | 18 | 4
CCOCCCN(CC(=O)N(Cc1ccccc1)Cc1cccn1C)C(=O)c1cccc(Br)c1 | -5 | 6
COCCNC(=O)c1cc(-c2cccc(OC)c2)n(-c2ccc(F)cc2)c1C | 16 | 7
O=C1CCC2(CCCO2)CCN1Cc1cncn1C1CC1 (stereo unspecified) | 19 | 10
COc1cccc(CN(Cc2ccco2)CC(O)COCc2ccco2)c1OC (stereo unspecified) | 23 | 30
Cc1cccc(NCC(=O)NC(=O)NCC(C)C)c1C(=O)N1CCCC1 | 2 | 2
O=S(=O)(c1ccc(Cl)c(N=C2SCCN2C2CCCCC2)c1)N1CCOCC1 | 5 | 1
COc1cc(OC)cc(C(=O)N2CCCC(OCc3cccc(C(F)(F)F)c3)C2)c1 (stereo unspecified) | -3 | 3
Cc1nn(-c2ccc(C(=O)OC(C)C(=O)N3CCOCC3)cc2)c(C)c1Cl (stereo unspecified) | 10 | 8
Cc1ccc(-c2ccc(C(=O)NCCC3CN(C)CCO3)o2)cc1 (stereo unspecified) | -1 | -6
Cc1onc(-c2ccccc2)c1C1=NNC(=CN2CCCCCC2)O1 | -8 | -5
COCCNC(=O)Cn1nc2c(c1NC(=O)c1ccc3c(c1)OCO3)CSC2 | -5 | 3
O=C(Nc1nnc(C2CCCCC2)s1)N1CCN(c2ccc(=O)[nH]n2)CC1 | -1 | 34
COc1ccc(-c2cnc3ncnn3c2N2CCN(C(=O)OCc3ccccc3)CC2)cc1OC | 0 | -2
CC(Nc1cccc(OC(F)(F)F)c1)C(=O)Nc1cccnc1Cl (stereo unspecified) | -1 | -3
O=C(Cn1nc(C(F)F)cc1C(F)F)NN1CCOCC1 | 1 | 2
CC(C)CC(=O)Nc1cccc(N2CCCCC2=O)c1 | 1 | 2
O=C(NCCC(F)(F)F)C1Cc2c(-c3ccc(Cl)cc3)ccnc2O1 (stereo unspecified) | 11 | 35
COc1cccc(N(CCCN2C(=O)c3cccc4cccc(c34)C2=O)C(=O)c2ccc(-c3ccccc3)cc2)c1 | 0 | -7
COc1ccc(-n2c(C(C)n3cccn3)n[nH]c2=O)cc1OC (stereo unspecified) | 2 | 1
CC(Cc1nc2ccccc2s1)N1CCOC(C(N)=O)C1 (stereo unspecified) | -21 | -22
O=S(=O)(NCCC1CCCN(Cc2ccco2)C1)C1CC1 (stereo unspecified) | 4 | 1
Cc1ccccc1-c1cc(O)c2c(c1)CN(CCn1nccc1C)CCO2 | 11 | 10
CN(Cc1ccccc1)Cc1nnc2sc(/C=C/c3ccccc3)nn12 | 1 | 0
CC(=O)Nc1nc(SCC(=O)N2CCOCC2)[nH]c(=O)c1NC(=O)c1ccc(F)cc1 | -1 | -2
CCCNC(=O)N(Cc1nccn1Cc1ccc(Cl)cc1Cl)C1CC1 | 6 | 6
CC1(C(=O)Nc2ccc3nc[nH]c3c2)CCN1C(=O)CC(c1ccccc1)c1ccccc1 (stereo unspecified) | 12 | 10
CN1CCN(c2nc3c(c(=O)[nH]c(=O)n3C)n2Cc2ccc(Cl)c(Cl)c2)CC1 | 9 | 4
O=C(c1cnn2c(C(F)(F)F)cc(-c3ccc4c(c3)OCO4)nc12)N1CCCCCC1 | -2 | -2
CCOc1cc(-c2ccc(O)cc2)cc(=O)c2c(C)oc(C)c12 | 2 | 1
Clc1cccc(C2CC(c3ccc(-c4ccccc4)cc3)=Nc3nnnn32)c1Cl (stereo unspecified) | 10 | 11
N#CCCN(C(=O)c1ccsc1)C1CC1 | 8 | 5
COc1cccc(-c2nc(C=Nc3ccc(Cl)cc3Cl)c(O)o2)c1 | 2 | -5
Nc1ncnc(NN=Cc2cc(Br)cc(Br)c2O)c1[N+](=O)[O-] | 3 | -4
C=C(C)C(Cc1ccccc1)S(=O)(=O)C[Si](C)(C)C (stereo unspecified) | -7 | -9
CCOC(=O)Cc1c(C)nc2ncnn2c1N1CCN(C(=O)Nc2ccc(C#N)cc2)CC1 | 24 | 12
Cc1ccc(S(C)(=O)=O)cc1NCC(=O)NCCc1cccs1 | -1 | -3
C=CCCS(=O)(=O)Nc1cccc(-n2nc(C)cc2C)c1 | 4 | 2
C/C(=C/C(=O)NC1CS(=O)(=O)c2ccccc21)c1ccc(F)cc1 (stereo unspecified) | 11 | 8
COc1cccc(OC)c1C(=O)NCCOc1ccc2nnc(-c3ccccc3)n2n1 | -7 | -11
O=C(NCCn1nc2ccccn2c1=O)c1ccc(Oc2cccnc2)cc1 | -5 | -6
COCCCNC(=O)CC1C(=O)NCCN1CC(c1ccccc1)c1ccccc1 (stereo unspecified) | 19 | 18
COc1ccccc1OCC1CN(C(=O)c2ncc[nH]2)CCO1 (stereo unspecified) | 20 | 21
O=C(CCc1nc2ccccc2c(=O)[nH]1)N1CCCC1CC1CCCCC1 (stereo unspecified) | 3 | 0
O=C(c1cccnc1Oc1cccc([N+](=O)[O-])c1)N1CCC(O)(c2ccccc2)CC1 | 0 | -2
OCc1nc2ccccc2n1CN1CCOCC1 | 7 | 12
Cc1ccc(-n2cnc3cc(C(=O)Nc4nc(C)c(C(=O)N(C)C)s4)ccc32)c(C)c1 | 1 | 1
Cc1cccc(OCC(=O)NCCc2ccc(S(N)(=O)=O)cc2)c1 | 10 | 6
COc1ccc2c(c1)OC1(C)CC2C(S(=O)(=O)c2ccc(C)c(C)c2)C(=O)N1 (stereo unspecified) | 1 | 7
CC(C)(OC(=O)NC(=O)C(F)(F)F)C(C)(C)OC(=O)NC(=O)C(F)(F)F | -6 | -7
CN(C)CCN(C(=O)C1=COCCO1)c1nc2ccc(Br)cc2s1 | -4 | -7
CN(C)Cc1ccccc1Sc1ccc(Br)s1 | -3 | -4
COC(=O)CC(=O)N1CCN(C(C(=O)Nc2ccc(C(C)C)cc2)C2CCCC2)CC1 (stereo unspecified) | -1 | 2
Cn1c(=O)n(CC(N)=O)c(=O)c2c1nc1oc(C(C)(C)C)cn12 | 2 | 5
CSCC(=O)NCCC[C@H](NC(=O)[C@@H]1[C@@H](NC(=O)NC(C)C)CCN1C(=O)CSC)C(N)=O | -4 | -14
CCOC(=O)c1c(-c2ccc(Cl)cc2)csc1NC(=S)NC(=O)N(C)C | -4 | -10
CN(CC(=O)Nc1ncc(C(F)(F)F)cc1Cl)Cc1ccc(Cl)c(Cl)c1 | -1 | -2
(continued)
SMILES | NPYLR7 agonist | NPYLR7 agonist max-min
CC(C)(C)c1nnc(N2CCOCC2)[nH]c1=O | 9 | 3
CCc1ccc(CN(C)Cc2c(C(=O)N3CCCCC3)nc3sccn23)nc1 | 4 | 8
CCCC(C)(C)NC(=O)c1scnc1Cl | -2 | -8
Cc1cccc2c1ncn1c(=O)c(-c3ccccc3)nnc21 | 3 | 2
CN(Cc1cn[nH]c1-c1ccc(F)cc1)C(=O)c1ccc2nccn2c1 | 3 | -2
Nc1cc(-c2cccc(Cl)c2)nn1-c1ccc(C(=O)Nc2ccc(Cl)cc2)cc1 | -6 | -12
CCN1CCN(c2c(CN(C(=O)Nc3c(C(C)C)cccc3C(C)C)C3CC3)c(C)nn2-c2cccc(F)c2)CC1 | 15 | 15
Fc1ccc(CSc2nnc(-c3cc(-c4ccccc4)nc4ccccc34)o2)cc1 | 15 | 12
Cc1cccc(-c2nc3c(c(=O)[nH]2)CN(C(=O)c2ccc(Cl)cc2Cl)CC3)c1 | 22 | 35
CCC1CCCCN1Cc1ncc(C(C)(C)C)o1 (stereo unspecified) | 7 | 1
FC(F)Sc1ncnc2sc3c(c12)CCCC3 | 1 | 6
Cn1c(=O)n(Cc2cccc(Cl)c2)c(=O)c2c1nc1n2CCCN1Cc1ccco1 | 2 | 2
Fc1ccc2c(c1)CCC2NCc1ccc2c(c1)CCO2 (stereo unspecified) | -1 | 0
Fc1ccccc1CSc1ncnc2c1nnn2Cc1ccccc1 | 19 | 25
Clc1ccc(-c2nc(-c3cccc(Br)c3)no2)s1 | -2 | -5
CC(C)(C)c1[nH]nc2c1C(c1ccco1)C(C#N)C(=N)O2 (stereo unspecified) | 4 | -1
Cc1cc(NC(=O)CN(C)C2CCC(C)CC2)no1 (stereo unspecified) | 11 | 8
COCCn1c2c(=O)n(C)c(=O)n(C)c2n2c(-c3ccc(OCc4ccccc4)cc3)nnc12 | 2 | -2
COCC(=O)N1CCCN(CC2=Cc3cccc(OC)c3OC2)CC1 | 6 | 1
O=S(=O)(c1ccc2c(c1)nc(SCc1ccc(C(F)(F)F)cc1)n2CC1CC1)N1CCCC1 | 25 | 20
CC1(C)O[C@@H]2C[C@@](OCc3cccc(Cl)c3)(C(=O)NCC3CC3)CC(OCc3ccc(C(F)(F)F)cc3)[C@@H]2O1 (stereo partly specified) | 1 | 3
COCC(=O)N(Cc1c(-c2ccccc2)noc1N1CCOCC1)C1CC1 | -10 | -2
COc1ccc(C2CC(c3cc(Cl)cc(Cl)c3O)=NN2)c(OC)c1 (stereo unspecified) | 5 | 4
CC(C(=O)N1CC[C@H](O)C1)c1ccsc1 (stereo partly specified) | 18 | 10

2 of the compounds above, in CSV form.
SMILES,NPYLR7 agonist,NPYLR7 agonist max-min
CC1(C)O[C@@H]2C[C@@](OCc3cccc(Cl)c3)(C(=O)NCC3CC3)CC(OCc3ccc(C(F)(F)F)cc3)[C@@H]2O1 (stereo partly specified),1,3
CC(C)(C)c1[nH]nc2c1C(c1ccco1)C(C#N)C(=N)O2 (stereo unspecified),4,-1

The listing continues:
SMILES | NPYLR7 agonist | NPYLR7 agonist max-min
CC1CC1C(=O)Nc1ncc(Cc2ccc(C#N)cc2)s1 (stereo unspecified) | 7 | 5
CN(C1CCCCC1)S(=O)(=O)NC1COc2ccccc21 (stereo unspecified) | 6&15 | 5&7
O=C(NCCSC1Sc2ccccc2NC1=O)c1ccc(Br)cc1 (stereo unspecified) | -6 | -10
C=CCc1cc(CN2CCN(C(=O)OC(C)(C)C)CC2)c(O)c(OC)c1 | 1 | 0
N=c1c2c(-c3ccccc3)c(-c3ccccc3)n(Cc3ccco3)c2ncn1CCN1CCOCC1 | -9 | -14
CCC(CC)NC(=O)C1CN(Cc2nnnn2C2CC2)c2ccccc2O1 (stereo unspecified) | 15 | 12
Cc1ccc(-n2cnnc2)cc1NC(=O)CN(C)C | 3 | 1
Cc1csc(SC(C)C(=O)Nc2c(C)cccc2C(C)C)n1 (stereo unspecified) | -6 | -6
Cc1ccc(N[P+](c2ccncc2)(N2CCCC2)C(C)(C)C)cc1C (stereo unspecified) | 8&6 | 6&4

As a working copy, part of the list above:
SMILES | NPYLR7 agonist | NPYLR7 agonist max-min
Cc1cccc2c1ncn1c(=O)c(-c3ccccc3)nnc21 | 3 | 2
CN(Cc1cn[nH]c1-c1ccc(F)cc1)C(=O)c1ccc2nccn2c1 | 3 | -2
Nc1cc(-c2cccc(Cl)c2)nn1-c1ccc(C(=O)Nc2ccc(Cl)cc2)cc1 | -6 | -12
CCN1CCN(c2c(CN(C(=O)Nc3c(C(C)C)cccc3C(C)C)C3CC3)c(C)nn2-c2cccc(F)c2)CC1 | 15 | 15
Fc1ccc(CSc2nnc(-c3cc(-c4ccccc4)nc4ccccc34)o2)cc1 | 15 | 12
Cc1cccc(-c2nc3c(c(=O)[nH]2)CN(C(=O)c2ccc(Cl)cc2Cl)CC3)c1 | 22 | 35
CCC1CCCCN1Cc1ncc(C(C)(C)C)o1 (stereo unspecified) | 7 | 1
FC(F)Sc1ncnc2sc3c(c12)CCCC3 | 1 | 6
Cn1c(=O)n(Cc2cccc(Cl)c2)c(=O)c2c1nc1n2CCCN1Cc1ccco1 | 2 | 2
Fc1ccc2c(c1)CCC2NCc1ccc2c(c1)CCO2 (stereo unspecified) | -1 | 0
Fc1ccccc1CSc1ncnc2c1nnn2Cc1ccccc1 | 19 | 25
Clc1ccc(-c2nc(-c3cccc(Br)c3)no2)s1 | -2 | -5
CC(C)(C)c1[nH]nc2c1C(c1ccco1)C(C#N)C(=N)O2 (stereo unspecified) | 4 | -1
Cc1cc(NC(=O)CN(C)C2CCC(C)CC2)no1 (stereo unspecified) | 11 | 8
COCCn1c2c(=O)n(C)c(=O)n(C)c2n2c(-c3ccc(OCc4ccccc4)cc3)nnc12 | 2 | -2
COCC(=O)N1CCCN(CC2=Cc3cccc(OC)c3OC2)CC1 | 6 | 1
O=S(=O)(c1ccc2c(c1)nc(SCc1ccc(C(F)(F)F)cc1)n2CC1CC1)N1CCCC1 | 25 | 20
CC1(C)O[C@@H]2C[C@@](OCc3cccc(Cl)c3)(C(=O)NCC3CC3)CC(OCc3ccc(C(F)(F)F)cc3)[C@@H]2O1 (stereo partly specified) | 1 | 3
COCC(=O)N(Cc1c(-c2ccccc2)noc1N1CCOCC1)C1CC1 | -10 | -2
COc1ccc(C2CC(c3cc(Cl)cc(Cl)c3O)=NN2)c(OC)c1 (stereo unspecified) | 5 | 4
CC(C(=O)N1CC[C@H](O)C1)c1ccsc1 (stereo partly specified) | 18 | 10
CC1CC1C(=O)Nc1ncc(Cc2ccc(C#N)cc2)s1 (stereo unspecified) | 7 | 5
CN(C1CCCCC1)S(=O)(=O)NC1COc2ccccc21 (stereo unspecified) | 6&15 | 5&7
O=C(NCCSC1Sc2ccccc2NC1=O)c1ccc(Br)cc1 (stereo unspecified) | -6 | -10
C=CCc1cc(CN2CCN(C(=O)OC(C)(C)C)CC2)c(O)c(OC)c1 | 1 | 0
N=c1c2c(-c3ccccc3)c(-c3ccccc3)n(Cc3ccco3)c2ncn1CCN1CCOCC1 | -9 | -14
CCC(CC)NC(=O)C1CN(Cc2nnnn2C2CC2)c2ccccc2O1 (stereo unspecified) | 15 | 12
